# High-throughput results: PubChem, National Center for Advancing Translational Sciences (NCATS)
# 2A StopGo – High Throughput Screening for Foot and Mouth Disease Virus Antivirals; human cells with a luciferase reporter of 2A StopGo recoding; control for the full effect not named in the record; 410,000 compounds, 1.2% hits; Potency, µM (series often up to 57.9 µM), inactives show at the highest dose signal change, negative = less light; active = well fitted falling curve with a large enough effect; inconclusive = small, poorly fitted or top-dose-only effect; inactive = no such curve, though single readings can be large or run the other way; tested in HEK293T cells; also: % is scaled to controls: 0 for no effect and ±100 for the full control effect; nearly all actives have a fitted effect of over 45% in size; luciferase light after 4 h
# SARS PLP yeast – qHTS of Yeast-based Assay for SARS-CoV PLP; Potency, µM (doses to about 32.9 µM), for the others: at the top dose activity, positive = growth rescue; 330,000 compounds, 0.19% hits; S. cerevisiae expressing SARS-CoV PLpro, growth rescue; control for the full effect not named in the record; also: 0% is about no effect; nearly all actives have a fitted effect of over 55% in size; growth read by luminescence after 48 h
# NS1 inh – qHTS Assay for Inhibitors of Influenza NS1 Protein Function. Potency, µM (highest dose often 46.1 µM), for the others: at the highest dose activity, positive = more growth. 270,000 compounds, 0.4% hits. S. cerevisiae slowed by influenza A NS1, growth recovery by OD600; also: actives are rising curves; nearly all actives have a fitted effect of over 50% in size
#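 S. cerevisiae expressing influenza A NS1, grown in glucose, washed, then diluted 1:100 into pH 6.0 -URA galactose medium with 23 nl compound. Growth recovery read as OD600; NS1-free strain serves as control.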
# Lassa entry inh – qHTS for Inhibitors of binding or entry into cells for Lassa Virus; Lassa virus pseudotype entry inhibition, cell reporter; control for the full effect not named in the record; Potency, µM (highest dose often 37.9 µM), for the others: at the top dose activity change, negative = inhibition, usual class: inhibitors; AID 540256, 2011; 300,000 compounds, 1.2% hits; active means well fitted inhibition curve with a large enough effect; inconclusive means small, poorly fitted or top-dose-only effect, or effect the other way; inactive means flat fitted curve, though single readings scatter; tested in HEK293 cells; also: % is scaled to controls: 0 for no effect and ±100 for the full control effect; nearly all actives have a fitted effect of over 50% in size; luciferase read-out
# RE007 growth inh – qHTS Assay for Inhibitors of the HIV-1 protein Vpr; S. pombe RE007 Vpr strain, BacTiter-Glo ATP luminescence, 24 h; control for the full effect not named in the record; Potency, µM (top dose mostly 92.2 µM), for the others: at the highest dose activity change, negative = less growth; AID 651644, 2012; 360,000 compounds, 0.21% hits; active = well fitted falling curve with a large enough effect; inconclusive = small, poorly fitted or top-dose-only effect; inactive = no such curve, though single readings can be large or run the other way;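 also: % is scaled to controls: 0 for no effect and ±100 for the full control effect; nearly all actives have a fitted effect of over 50% in size; the assay follows cell death caused by Vpr and the record does not say whether a fall means rescue or toxicity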
#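 Fission yeast strain RE007, carrying one chromosomally integrated HIV-1 vpr copy, was seeded at OD 0.01 in PMG+AL medium with 23 nL pinned compound. After 24 h at 30 °C and 99% humidity, viability was read by BacTiter-Glo luminescence.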
# Cruzain noTriton – qHTS Assay for Promiscuous and Specific Inhibitors of Cruzain (without detergent); Cruzipain (Trypanosoma cruzi), P25779; purified cruzain, Z-FR-AMC fluorescence, no detergent; Potency, µM, for the others: max response, negative = inhibition, actives largely listed as inhibitors; 200,000 compounds, 2.3% hits; AID 1476, 2009; active = well fitted curve in the direction sought with a large enough effect; inconclusive = small, poorly fitted or top-dose-only effect, or another doubt; inactive = no such curve, though single readings can be large; an effect the other way counts as inactive or inconclusive;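 also: plate controls were enzyme without inhibitor for no effect and buffer without enzyme for full effect; nearly all actives have a fitted effect of over 40% in size; top concentration of the series not given in the record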
# Target sequence (P25779 123-467 limits assumed): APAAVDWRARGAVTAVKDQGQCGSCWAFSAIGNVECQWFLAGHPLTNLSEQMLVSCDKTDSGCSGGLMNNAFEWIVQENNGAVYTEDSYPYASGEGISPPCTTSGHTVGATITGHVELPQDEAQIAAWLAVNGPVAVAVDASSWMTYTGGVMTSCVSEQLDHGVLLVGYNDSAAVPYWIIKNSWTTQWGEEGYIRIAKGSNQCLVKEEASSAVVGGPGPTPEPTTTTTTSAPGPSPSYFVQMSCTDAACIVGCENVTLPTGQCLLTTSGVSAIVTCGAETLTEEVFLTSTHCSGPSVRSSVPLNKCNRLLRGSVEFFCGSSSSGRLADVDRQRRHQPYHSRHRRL
#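 Detergent-free condition (0.00005% Triton X-100) in acetate buffer pH 5.5 with DTT. 1.5 nM enzyme and compound were pre-mixed 15 min, then 2 uM Z-FR-AMC substrate added; reaction progress from fluorescence change between first and third reads (60 s).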
# MARV entry inh – qHTS for inhibitors of binding or entry into cells for Marburg Virus; 300,000 compounds, 1.8% hits; Potency, µM (titrated, usually from 37.8 µM), inactives show at the top dose activity change, negative = inhibition, most hits filed as inhibitors; AID 540276, 2011; Marburg virus pseudotyped entry inhibition, cell reporter; control for the full effect not named in the record; about a third of the inactives were read at about 46 µM; active = well fitted inhibition curve with a large enough effect; inconclusive = small, poorly fitted or top-dose-only effect, or effect the other way; inactive = flat fitted curve, though single readings scatter; tested in HEK293 cells; about a fifth of its hits are not listed in these tables; also: % is scaled to controls: 0 for no effect and ±100 for the full control effect; luciferase read-out
# Cruzain inh Det – qHTS Assay for Promiscuous and Specific Inhibitors of Cruzain (with detergent); purified cruzain, Z-FR-AMC fluorescence, 0.01% Triton; Potency, µM, for inactives: max response, negative = inhibition, hits mostly inhibitors; 200,000 compounds, 0.43% hits; AID 1478, 2009; active = well fitted curve in the direction sought with a large enough effect; inconclusive = small, poorly fitted or top-dose-only effect, or another doubt; inactive = no such curve, though single readings can be large; an effect the other way counts as inactive or inconclusive;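 also: plate controls were neutral wells for no effect and buffer without enzyme for full effect; nearly all actives have a fitted effect of over 40% in size; top concentration of the series not given in the record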
#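 Cruzain (1.5 nM) preincubated 15 min at RT with compound in 100 mM sodium acetate pH 5.5, 5 mM DTT, 0.01% Triton X-100. Reaction started with 2 uM Z-FR-AMC; AMC fluorescence (ex 360/em 450 nm) change over 60 s gave rate.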
# An asterisk follows results filed as active; ? = inconclusive; . = no result given; & = joins results of further samples; [ ] = remark or other dose. Unless noted, calls follow the shape of the dose curve; as a rule, active means well fitted rising curve with a large enough effect; inconclusive means small, poorly fitted or top-dose-only effect; inactive means no such curve, though single readings can be large or run the other way. Potency is read from the fitted curve at half-maximal effect.
SMILES,2A StopGo,SARS PLP yeast,NS1 inh,Lassa entry inh,RE007 growth inh,Cruzain noTriton,MARV entry inh,Cruzain inh Det
Cc1ccc(OCc2cc(C(=O)N3CC4C[C@@H]5CC3C[C@H](C4)C5)no2)cc1C,5.0%,?,5.3%,-25.4%,-9.3%,.,11.9%,.
COc1ccc(Br)cc1/C=N/NC(=O)c1cccnc1,-13.7%,19.8%,3.4%,1.0%[46.1 µM],2.5%,.,?,.
CC/C(=N\NC(=O)c1ccccc1)c1c(O)n(C2CCCCC2)c(=O)[nH]c1=O,-20.0%,4.8%,-19.2%,.,-2.7%,.,.,.
N#Cc1cnn(-c2nc3sc4c(c3c(=O)[nH]2)CCCC4)c1N,7.3%,-10.9%,0.4%,-3.0%,7.7%,?,-2.6%,-1.7%
Cn1c(=O)[nH]c(=O)c2c1nc(Sc1ncccn1)n2CCCc1ccccc1,13.5%,-2.6%,-2.6%,-3.6%,3.4%,-13.5%,1.4%&1.4%,3.3%
Cc1ccnc(NC(=O)c2ccc(OCc3c(C)noc3C)cc2)c1,7.3%,0.1%,.,-6.7%,1.4%,.,?,.
CC(C)N(C(=O)Cn1c(-c2cccnc2)ccc(C#N)c1=O)C(C)C,-12.3%,0.5%,-7.3%,.,0.6%,.,.,.
CCCCC(O)(c1ccc(F)cc1)C(CN1CCOCC1)c1ccc(Cl)cc1 (stereo not given),?,-8.9%,-11.9%,.,-18.0%,.,.,.
O=C(/C=C/c1ccc2c(c1)OCCO2)c1ccccc1,-6.7%,-1.9%,-65.3%,.,?,.,.,.
Nn1c(SCCOc2ccccc2)nnc1-c1cccnc1,-2.6%,20.8%,-4.2%,-1.6%,3.2%,5.1%,11.3%,-3.9%
COc1ccc(N2CCN(C(=O)c3ccc4c(c3)N(Cc3ccc(F)cc3)C(=O)c3ccccc3S4=O)CC2)cc1 (stereo not given),-10.1%,.,.,?,.,11.8%,?,0.2%
CCOC(=O)C1CCCCN1Cc1cccc(F)c1 (stereo not given),.,25.2%,4.3%,2.5%,9.8%,1.5%,-15.8%,4.2%
COc1ccc(C(=O)NC(C)c2nnc(SCc3ccc(Cl)c(Cl)c3)n2C)cc1 (stereo not given),10.9%,-5.1%,4.7%,-9.8%,10.8%,?,-28.4%,-5.1%
CC1(C)Cc2c(cnn2-c2ccccc2)C(NC(=O)CCN2CCCCO2)C1 (stereo not given),-1.9%,1.8%,5.4%,.,1.6%,.,.,.
CCOC(=O)c1ccc(N2C(=O)c3n[nH]c(-c4cccs4)c3C2c2cccc(F)c2)cc1 (stereo not given),?,.,.,?,.,?,?,4.4%
O=C(O)c1ccc(-c2ccccn2)s1,38.0%[activator],0.2%,.,4.8%,26.9%,.,2.6%[46.1 µM],.
COc1ccc(CCNC(=O)COc2cc(C)cc3oc(=O)cc(C)c23)cc1,-23.2%,-1.4%,-1.3%,.,4.6%,.,.,.
CC1(c2ccccc2)NC(=O)N(CC(=O)NNC(=O)c2ccccc2)C1=O (stereo not given),-19.0%,-6.9%,2.0%,.,-0.3%,.,.,.
O=C(C1=NN[C@@H]2C(=O)N(c3cccc(F)c3)C(=O)[C@H]12)c1cnccn1,6.9%,-3.6%,-0.1%,22.0%,1.9%,.,-2.4%[14.2 µM],.
Cc1ccc(C)c2[nH]c(=O)c(CN(Cc3ccco3)S(=O)(=O)c3ccc4c(c3)OCCO4)cc12,?,-2.1%,16.8%,-21.8%,16.9%,?,0.0%&-23.5%,-2.1%
CC(C)CN1CCNC(=O)C1CC(=O)NCc1cnn(-c2cccc(F)c2)c1 (stereo not given),-2.5%,0.0%,15.4%,.,0.6%,.,.,.
COc1ccccc1Cc1nc2ccccc2nc1SCC(=O)N1CCCc2ccccc21,-15.7%,.,.,6.3%[46.1 µM],.,-7.8%,.,0.0%
O=C(Nc1ccccc1C(F)(F)F)c1cnccn1,-8.4%,4.7%,-4.7%,23.9%,-2.6%,.,15.7%,.
COc1ccc(C)cc1NC(=O)C1CCN(C(=O)C2CC(=O)N(c3ccc(C)cc3)C2)CC1 (stereo not given),-3.3%,0.6%,-9.9%,1.8%[46.1 µM],4.6%,.,0.6%[46.1 µM],.
CC1(C)CC(=O)c2sc(NS(=O)(=O)c3ccc([N+](=O)[O-])cc3)nc2C1,-3.0%,-1.3%,0.7%,8.1%,2.8%,.,16.8%,.
O=C(O)CNc1nc(-c2ccccc2)nc2c1oc1ccccc12,-8.4%,-0.1%,3.2%,.,-2.0%,.,.,.
COc1cc(OC)c(NC(=O)c2cncn2-c2ccc(F)cc2)cc1Cl,24.9%,3.6%,-11.8%,-14.7%[46.1 µM],0.0%,.,?,.
Cc1ccc(-c2ccc(=O)n(CC(=O)NCCN3CCCCC3C)n2)cc1 (stereo not given),.,-1.1%,1.8%,-4.4%,-6.1%,-6.3%,5.2%,-1.4%
O=C(NCc1cccnc1)C1CCN(S(=O)(=O)c2cc([N+](=O)[O-])ccc2Cl)CC1,?,.,.,1.1%,-1.7%,.,-29.1%,.
CCN1CCN(Cc2c(O)ccc3oc(C)c(C(=O)Nc4cccc(C(F)(F)F)c4)c23)CC1,0.0%,.,.,?,.,0.4%,?,-4.7%
CCCN1CCc2c(sc(NC(=O)C3CCN(S(=O)(=O)c4cccs4)CC3)c2C(N)=O)C1,-11.7%,0.9%,.,?,5.9%,.,?,.
O=C(CCN=C1NS(=O)(=O)c2ccccc21)N1CCc2ccccc2C1,54.0%[activator],0.6%,.,-17.8%,-2.6%,.,13.4%[46.1 µM],.
Cc1cc(NC(=O)/C=C\C(=O)O)c([N+](=O)[O-])cc1C,-4.3%,-0.6%,10.0%,0.9%,-20.5%,.,2.4%,.
CCOc1ccc(N/C(N)=N/c2nc(C)cc(C)n2)cc1,-14.4%,-1.3%,7.8%,.,2.3%,.,.,.
Cc1cc(C)c2c(C)[nH]nc2n1,-11.2%,-1.3%,-3.4%,26.8%,-5.2%,.,13.8%,.
COc1cccc(CN2CC(C(=O)NCCN3CCOCC3)CCC2=O)c1 (stereo not given),-11.5%,-2.9%,0.2%,.,-1.3%,.,.,.
CCOC(=O)c1c(NC(=S)Nc2cccc(C)c2)sc2c1CC(C)(C)SC2,-22.6%,2.7%,23.1%,-18.6%,-10.9%,20µM*,-24.9%,-9.0%
COc1ccc(CCN2C(=O)N(c3ccc(F)cc3)C(=O)C2CC(=O)Nc2ccc(OC)cc2)cc1 (stereo not given),19.9%,.,.,-20.9%[46.1 µM],.,17.6%,?,-7.5%
Cc1onc(-c2ccccc2Cl)c1C(=O)Oc1cc(N)n(S(=O)(=O)c2ccc(F)cc2)n1,31.6µM*,-1.3%,-2.9%,-20.2%,25.1%,?,?,3.2%
COc1ccc(CCNc2cc(C)[nH]c(=O)c2)cc1OC,11.1%,1.1%,12.2%,0.3%[46.1 µM],16.2%,.,10.6%[46.1 µM],.
CCCCN(C)C(=O)c1ccc2c(c1)N(Cc1cccc(Cl)c1)C(=O)c1ccccc1S2=O (stereo not given),-8.5%,.,.,?,.,5.1%,.,-0.6%
Cc1ccc(NC(=O)c2ccc(CSc3nnc(-c4ccncc4)n3C)cc2)c(C)c1,5.9%,-0.5%,.,11.7%,-4.2%,1.8%,-1.4%,8.1%
CN(C)c1ccc(N2C(=NC(=O)c3ccccc3)SC3CS(=O)(=O)CC32)cc1 (stereo not given),-7.6%,-3.7%,-13.1%,-8.6%[46.1 µM],-9.3%,.,-3.5%[46.1 µM],.
O=C(OCC(=O)N1CCc2ccccc21)c1cccnc1Cl,59.0%[activator],-0.3%,-8.2%,5.9%,1.1%,-0.5%,23.3%,2.2%
CCOc1ccc(CC(=O)N/N=C/c2cccnc2)cc1,-22.2%,-0.5%,-1.4%,?,6.0%,.,-15.4%,.
O=C1CN(C(=O)c2ccc(Br)o2)C(c2ccccc2)c2cc(Br)ccc2N1 (stereo not given),-27.6%,-6.0%,11.2µM*,.,-0.1%,?,.,-1.1%
Cc1sc2ncnc(N3CCN(CCOc4ccc(Cl)cc4)CC3)c2c1C,?,-18.0%,-53.3%,?,-5.9%,7.3%,?,-8.7%
CCN(CC)S(=O)(=O)c1cccc(C(=O)Nc2ccccc2)c1,-13.0%,-2.0%,-2.4%,?,6.9%,-6.7%,18.1%,0.0%
CCOC(=O)c1c(/N=C/c2ccccc2O)sc2c1CCC2,-1.1%,-9.2%,3.1%,6.8%,-7.6%,4.4%,?,-7.1%
O=C(Nc1ccc(S(=O)(=O)Nc2nccs2)cc1)C1=NN(c2ccccc2)C(=O)CC1,10.0%,0.3%,13.3%,.,4.9%,.,.,.
COc1ccc(C(=O)C2CCCCC2=O)cc1 (stereo not given),24.9%,0.7%,3.2%,-1.0%,-23.4%,-3.3%,23.9%,-5.3%
N=C(N)N=Nc1c(O)[nH]c2ccc(Br)cc12,-6.8%,0.4%,-4.1%,5.0%[46.1 µM],-3.9%,.,-20.5%[46.1 µM],.
CC(C)c1nc2sc3c(c2c(=O)[nH]1)CC(C)(C)OC3,-18.4%,0.4%,3.5%,.,3.5%,.,.,.
CCOc1ccc(C(C)NC(=O)c2cc(=O)[nH]c3ccccc23)cc1OCC (stereo not given),-9.3%,-4.6%,-6.2%,.,2.3%,.,-5.0%[46.1 µM],.
COc1ccc(C(C(=O)NC2CCCCC2)N(C(=O)c2ccccn2)c2cccnc2)c(OC)c1 (stereo not given),24.2%,0.3%,-3.8%,11.7%,-5.1%,.,5.2%[46.1 µM],.
